# CtBP-E1A blk: inhibitors of CtBP/E1A interaction; AlphaScreen GST-E1A/His-CtBP binding, 1536-well; stronger effect = lower value; control for the full effect not named in the record; activity change, % (test concentration not listed); 0.49% of 340,000 active; AID 651724; in the data active means activity change below about -65%; inconclusive means about -30% to -65%; inactive means above about -30%; note: % is set by controls: 0 for no effect and ±100 for the full control effect; compound concentration not given in the record
#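 Protein mix (5X: 125 nM each GST-E1A, His-CtBP) was incubated with pinned compound 2 h at 37 deg C in dark, in 50 mM Tris pH 8.0 buffer with 300 mM NaCl. Glutathione donor and nickel acceptor beads followed; AlphaScreen signal read after 1 h.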
# Six1-Eya2 inh: inhibitors of human Six1/Eya2 interaction. 0.56% of 360,000 active. AlphaScreen GST-Six1/His-Eya2 binding, biochemical; stronger effect = lower value; control for the full effect not named in the record. activity change, % (no concentration beside the values). Q15475+O00167; in the data active = activity change below about -65%; inconclusive = about -30% to -65%; inactive = above about -30%; note: % is set by controls: 0 for no effect and ±100 for the full control effect; compound concentration not given in the record
#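 Six1/Eya2 binding was read as AlphaScreen signal after compounds were pinned into GST-Six1 plus His-tagged Eya2 (5X stock 250/500 nM) in pH 8.0 Tris/NaCl/TCEP buffer, beads added, then incubated 1 h, 37 C, dark.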
# Sfp inh: blocks B. subtilis Sfp PPTase activity; Q9F4F7; Biochemical Sfp PPTase activity, qHTS; Potency, µM, without a hit: max response, negative = inhibition, actives largely listed as inhibitors; 3.5% of 310,000 active; AID 1490; active = well fitted inhibition curve with a large enough effect; inconclusive = small, poorly fitted or top-dose-only effect, or another doubt; inactive = no such curve, though single readings can be large or run the other way;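 note: the enzyme is Sfp with the accession as filed and its product quenches rhodamine fluorescence; potency is the fitted concentration of half-maximal effect; 0% = enzyme reaction without inhibitor and -100% = no enzyme wells; top concentration of the series not given in the record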
#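 With Hepes-Na pH 7.6 buffer containing 10 mM MgCl2, Sfp (15 nM) modified BHQ-2-YbbR (12.5 uM) using rhodamine-CoA (5 uM). Two reads 30 minutes apart at 525/598 nm yielded each well's rate.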
# D2 ag: agonists of human D2 dopamine receptor (beta-arrestin); 0.084% of 360,000 active; DiscoveRx PathHunter D2 beta-arrestin, luminescence, 90 min; 100% = 57 uM dopamine signal; activation, % (concentration not given with the values); in the data active = activation above about 40%; inconclusive = about 15% to 40%; inactive = below about 15%; note: compound concentration not given in the record; the text of the record calls up to 30% inactive
# Target sequence (P14416 whole entry, looked up): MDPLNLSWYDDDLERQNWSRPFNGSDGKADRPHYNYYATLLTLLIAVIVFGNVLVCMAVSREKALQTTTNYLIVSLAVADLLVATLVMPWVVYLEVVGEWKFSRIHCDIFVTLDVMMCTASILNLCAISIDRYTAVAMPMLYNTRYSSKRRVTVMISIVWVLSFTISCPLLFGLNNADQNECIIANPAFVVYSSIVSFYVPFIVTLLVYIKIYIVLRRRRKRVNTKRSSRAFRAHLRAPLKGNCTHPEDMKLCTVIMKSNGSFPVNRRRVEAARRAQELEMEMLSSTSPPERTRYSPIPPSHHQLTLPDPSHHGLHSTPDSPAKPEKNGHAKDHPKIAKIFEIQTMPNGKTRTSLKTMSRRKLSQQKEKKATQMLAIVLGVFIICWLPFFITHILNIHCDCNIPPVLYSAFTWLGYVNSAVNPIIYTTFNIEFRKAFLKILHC
#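 DiscoveRx PathHunter D2 beta-arrestin cells (2,100/well) attached overnight, then compound-stimulated 90 min at 37 C in HBSS/10 mM HEPES/0.1% Tween-20 buffer; beta-galactosidase complementation read by luminescence after 1 h at ambient temperature. Dopamine 57 uM final (EC100) as control.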
# PINK1 expr mod: modulators of PINK1 expression; AID 624263; PINK1 immunofluorescence, high-content cytometry, 24 h; Potency, µM (series often up to 76.6 µM), inactives show top-dose activation (PINK1 increase), actives largely listed as activators; 0.2% of 410,000 active; active = well fitted activation curve with a large enough effect; inconclusive = small, poorly fitted or top-dose-only effect; inactive = flat fitted curve, though single readings scatter; cell line not stated here;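 note: potency is the fitted concentration of half-maximal effect; % of control where 0% means no effect; nearly all actives have a fitted effect of over 65% in size; a mitochondrial uncoupler was the plate control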
#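 Fluorescence from anti-PINK1 antibody, together with nuclear and cell stains, was scanned on a laser-scanning cytometer. Before staining, stable-line cells were incubated 24 hours with compounds at 5 concentrations; primary antibody 12 h at 10 degrees C.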
# D2 PAM: positive allosteric modulators of human D2 dopamine receptor | DiscoveRx D2 beta-arrestin cells, luminescence, 90 min; 100% = 57 uM dopamine signal | potentiation, % (no concentration beside the values) | 0.23% of 360,000 active | AID 624464; active = potentiation of 50% or more; inconclusive = 30% to 50%; inactive = 30% or less;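 note: compound concentration not given in the record; tested on top of an EC20 dose of dopamine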
#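 D2 cells co-treated with compound plus 50 nM dopamine (EC20) for 90 min at 37 deg C to detect potentiation. Beta-arrestin recruitment was read as enzyme-fragment luminescence after 1 h at ambient temperature. Full response was set by 57 uM dopamine.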
# TRPV1 PAM: potentiators of human vanilloid receptor 1 (TRPV1) | potentiation, % at 8.33 µM | 0.02% of 320,000 active | TRPV1-expressing cells, Fluo-8 calcium influx, capsaicin EC20 potentiation; host cell line not named in the record; control for the full effect not named in the record | Q8NER1; active means potentiation above 80%; inconclusive means 30% to 80%; inactive means below 30%; note: 0% is about no effect
#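 Cells expressing TRPV1 were dye-loaded with Fluo-8 and read kinetically: 10 s baseline, 3 min after compound (agonist portion), then 2 min after EC20 capsaicin (allosteric enhancer portion). Calcium-bound dye fluorescence at 480/520 nm.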
# Numbers without * were called inactive; ? = inconclusive; nt = not tested or not shown; & = joins results of further samples; [ ] = another dose, or the depositor's remark.
SMILES,CtBP-E1A blk,Six1-Eya2 inh,Sfp inh,D2 ag,PINK1 expr mod,D2 PAM,TRPV1 PAM
CCN1C(=O)C2C(c3ccc(O)c(OC)c3)NC(C)(C(=O)OC)C2C1=O (stereo not given),2,6,12%,-0.9,-0.4%,0,9
COc1cc(C(=O)OCC(=O)Nc2cc(C)on2)cc(OC)c1OC,8,2,9%,-0.5,5.8%[38.3 µM],7,5
OC(c1ccc(F)c(F)c1)c1nc(-c2ccc3ccccc3c2)cs1 (stereo not given),7,8,nt,1.4,5.0%,-4,nt
COc1ccccc1OCC(O)CNCc1ccc2c(c1)OCO2 (stereo not given),7,0,21%,6.6,-0.1%,6,7
CCCN(CC(=O)Nc1cc(C)on1)CC(=O)Nc1ccc(F)c(F)c1F,6,3,nt,-2.0,0.9%,-20,nt
CCCCN(c1ccccc1)S(=O)(=O)c1cccc2cccnc12,11,9,0%,-3.2,0.8%,-11,-8
Fc1ccc(CN2CCN(C(=S)NCCc3ccccc3)CC2)c(Cl)c1,0,-1,15%,0.9,-0.6%,-9,-3
COc1ccc(C(C(=O)NC(C)(C)C)N(CCO)C(=O)CCC(=O)Nc2cc(C)on2)cc1 (stereo not given),0,-1,9%,3.4,1.2%,4,9
Cc1ccc(S(=O)(=O)NCc2ccc3[nH]c(C)cc3c2)cc1,-1,-8,14%,-2.2,1.7%,-8,-5
COc1cc(C(CC(=O)Nc2ccc(C)cn2)N2Cc3ccccc3C2=O)cc(OC)c1OC (stereo not given),-2,1,5%,-4.4,7.0%,-6,14
Cn1c(OCc2cccnc2)nc2c1c(=O)n(Cc1ccc(Cl)cc1)c(=O)n2C,-11,-5,nt,4.0,nt,15,nt
CCOc1ccc(-c2nnc(-c3ccco3)o2)cc1OCC,-19,-16,12%,-3.5,11%,-2,-10
CC(C)N(CCNC(=O)c1cn(C)c2ccc(S(=O)(=O)N(C)C)cc2c1=O)Cc1ccccc1,-1,6,19%,-2.5,0.1%,-7,-8
Cc1ccc(NC(=O)c2ccc(CSc3ccccn3)cc2)c(O)c1,-13,-8,2%,-0.2,1.9%,-9,-14
CC1(c2ccc([N+](=O)[O-])c(CS(=O)(=O)c3ccccc3)c2)OCCO1,nt,10,20%,4.5,-0.3%,-3,1
COc1cc(O)c(C(CC(=O)N2CCN(c3ccccc3)CC2)c2ccc3c(c2)OCO3)c(OC)c1 (stereo not given),-15,-20,-2%&12%,0.5,1.1%,-14,-22
Cc1c(N2C(=O)c3ccccc3C2=O)c(=O)n(-c2ccccc2)n1C,4,9,-4%,-2.3,2.3%,-7,0
CCOc1ccc(S(=O)(=O)N(C)CC(=O)NC2CCCC2)cc1,2,9,8%,-4.4,3.7%,7,-1
CCOc1ccc2nc(N3CCCCCC3)sc2c1,3,2,-6%,4.1,16%[38.3 µM],-1,-2
COc1cc(OC)cc(-c2nnc(SCC(=O)Nc3ccc(C(=O)O)cc3)s2)c1,?,?,-14%,3.6,-0.4%,-3,3

# Of the compounds above, two contain an aryl thioether with sulfur outside any ring.
SMILES,CtBP-E1A blk,Six1-Eya2 inh,Sfp inh,D2 ag,PINK1 expr mod,D2 PAM,TRPV1 PAM
Cc1ccc(NC(=O)c2ccc(CSc3ccccn3)cc2)c(O)c1,-13,-8,2%,-0.2,1.9%,-9,-14
COc1cc(OC)cc(-c2nnc(SCC(=O)Nc3ccc(C(=O)O)cc3)s2)c1,?,?,-14%,3.6,-0.4%,-3,3

# Remaining list, next part
SMILES,CtBP-E1A blk,Six1-Eya2 inh,Sfp inh,D2 ag,PINK1 expr mod,D2 PAM,TRPV1 PAM
COc1ccc(-c2nc3ccccn3c2NCc2ccc3c(c2)OCO3)cc1,-3,-18,-11%,6.4,1.3%,-9,-11
CCCCCN(C(=O)CCC(=O)OCC(=O)N(CC)c1ccccc1)c1c(N)n(CCCC)c(=O)[nH]c1=O,-15,-12,nt,-1.7,-1.6%,8,-21
N#CCCN1CCN(S(=O)(=O)c2ccc(S(=O)(=O)NC3CCCC3)cc2)CC1,3,9,-6%,4.0,-0.4%,-2,25
O=C(Cc1ccccc1)Nc1ccccc1C(=O)NCC1CCCO1 (stereo not given),-3,10,1%,-3.0,-0.6%,-11,-5
COc1ccccc1N1CCN(CCCCOc2c(OC)cccc2OC)CC1,-4,-8,-20%,1.0,1.8%,-37,4
O=C(O)c1cc(-c2ccc(Cl)s2)[nH]n1,8,10,15%,-1.3,0.0%,-6,-1
O=C(N/N=C/c1cc(Br)cc(Br)c1O)c1cccc(S(=O)(=O)N2CCOCC2)c1,-94*,-70*,14%,-1.8,1.8%,-5,4
COC(=O)c1cc(S(=O)(=O)N2CCN(c3ccc([N+](=O)[O-])cc3)CC2)c[nH]1,nt,-14,5%,1.7,-0.1%,-13,21
Nc1c(Cl)ncnc1NCC(O)CO (stereo not given),-17,0,19%,-2.1,0.7%,-1,4
Cc1ccc(C)c(/C(O)=C2/C(=O)C(=O)N(CCN3CCOCC3)C2c2ccco2)c1 (stereo not given),9,-6,10%,-1.7,0.7%,-17,-2
COC(=O)C(Cc1c[nH]c2ccccc12)NC(=O)c1ccc2nc[nH]c2c1 (stereo not given),0,-12,nt,2.6,-1.3%,-3,?
COc1ccc(C(O)c2nc(-c3cccc(C(=O)O)c3)cs2)cc1 (stereo not given),-1,7,nt,2.2,1.1%,-4,nt
CN(Cc1ccccc1)N=Nc1nc[nH]c1C(N)=O,2,-2,nt,-4.3,1.5%,-3,nt
O=C(N/N=C/c1ccc2c(c1)OCO2)c1ccc2c(c1)OCCO2,-14,-17,0%,-2.6,6.0%,-23,-23
CN(C)C(=O)c1ccc(NC(=O)c2cccnc2)cc1,8,3,-7%,-2.3,1.5%,-3,-2
CCOc1ncccc1C(=O)Nc1cc(S(=O)(=O)N2CCCCC2)ccc1C,-16,-1,nt,-2.4,8.5%,-2,-4
CC(OC(=O)CCN1C(=O)C2CC=CCC2C1=O)C(=O)Nc1cccc(Cl)c1 (stereo not given),6,2,nt,-4.2,0.4%,-2,-17
CCOC(=O)N1CCN(c2c(NCCCN3CCCCCC3)c(=O)c2=O)CC1,5,-1,-7%,4.0,1.1%,6,5
N/C(=N\OC(=O)COc1ccccc1)c1ccncc1,nt,10,?,-4.7,1.5%,-17,-5
Cc1ccc(OCC(=O)Nc2cc(Cl)ccc2-n2cncn2)c(C)c1,2,2,nt,-1.4,0.6%,-7,nt
CCCOc1ccc(C(C)=O)cc1CC(C(N)=O)C(N)=O,4,2,2%,0.7,-0.7%,15,8
Cc1ccc(C(=O)NC(Cc2ccccc2C(F)(F)F)C(=O)O)cc1 (stereo not given),6,5,nt,-2.4,-0.2%,-8,nt
COc1ccc(C(=O)OCC(=O)Nc2cc(C)on2)c(OC)c1OC,-18,21,7%,-4.2,3.2%,7,6
COc1ccc(N(CC(=O)NCCC2=CCCCC2)S(=O)(=O)c2ccccc2F)cc1,0,0,0%,-0.7,1.7%,-1,-26
N#Cc1c(N)nc2c(c1-c1ccc(F)cc1)c(=O)nc1sccn12,-10,?,18%,-2.4,-0.1%,-6,4
Cc1ccc(C(C)C)c(OCC(=O)NC2CCN(C)CC2)c1,-6,9,9%,-1.6,-1.4%,-32,12
CNc1nc(-c2ccc3c(c2)CCN3C(=O)c2cccc(F)c2)cs1,-10,-6,-22%,-1.1,3.1%,-6,-6
c1ccc(Nc2nc(NCCN3CCOCC3)nc(Nc3ccccc3)n2)cc1,3,-20,1%,-2.8,-0.1%,-3,0
C#CCSc1nnc(-c2c[nH]c3ccccc23)n1C,21,17,19%,-2.7,3.0%,0,0
CCOC(=O)C1=C(COC(=O)c2ccccc2OC(F)F)NC(=O)NC1C (stereo not given),7,3,nt,6.7,-0.9%,-5,-3
CCCCCCc1cc2cc(C(=O)OCC)c(=O)oc2cc1O,-13,1,15%,-4.1,?,-6,-6
O=C(NCc1cccs1)C1CCCN1C(=O)Nc1ccccc1[N+](=O)[O-] (stereo not given),-18,1,8%,-0.8,0.7%,-4,10
O=C(NCC1CCCC(CNC(=O)N2CCc3ccccc32)C1)N1CCc2ccccc21 (stereo not given),-5,-5,17%,-6.0,32%[38.3 µM],-17,-10
CC(C)NC(=S)NN=C1CCC(c2ccccc2)CC1 (stereo not given),-6,-10,15%,-0.5,-0.1%,-6,2
COC(=O)/C(C#N)=C/c1ccc(OC(=O)c2ccccn2)cc1,?,?,14µM*,-3.0,3.4%,-18,10
COc1ccc(N=Nc2cc(C)ccc2O)cc1,?,?,4%,0.6,20%,-7,2
NC(=O)c1cccc(-c2ccnc3c2CC(C(=O)Nc2cccc(C(F)(F)F)c2)O3)c1 (stereo not given),-1,9,nt,3.2,-0.3%,-4,nt
C=CCOc1ccc(/C=N/NC(=O)C(C)Sc2ccccn2)cc1OCC (stereo not given),nt,-10,-13%,0.2,-0.7%,-7,21
Cc1ccc(NC(=O)N2N=C(c3ccc(F)cc3)CC2c2ccc(F)cc2)cc1 (stereo not given),15,0,8%,-3.1,?,-11,9
COC(=O)c1ccc(NC(=S)N2CCCC2)cc1,nt,-19,16%,-2.8,0.9%,-3,-17
O=C(Nc1ccccc1F)c1ccc(CN2CCc3ccccc3C2)cc1,-3,-2,1%,-6.1,4.5%,1,-14
O=C(N[C@@H]1C/C=C\C[C@@H](CC(=O)N(CCO)Cc2ccccc2)C(=O)N[C@@H](c2ccccc2)COC1=O)OCC1c2ccccc2-c2ccccc21,7,-3,nt,-4.7,1.5%,-8,nt
Cc1ccc(C)c(NC(=O)CSc2nnc(C3CCCCC3)o2)c1,3,2,19%,-4.8,-0.8%,-2,2
COCCSc1nnc(NC(=O)c2ccc(NC(=O)C(C)C)cc2)s1,nt,17,9%,-2.9,0.0%,-2,-22
S=C(Nc1ccc(Cl)cc1)NC1CC2CCC(C1)N2Cc1ccccc1 (stereo not given),-6,-2,-16%,3.8,6.4%,-24,-6
Cc1ccc(C(=O)CSc2cc(C)nc(SCC(=O)c3ccccc3)n2)cc1,11,2,6%,-2.0,3.1%,-10,2
CC(C)C[C@@H](CN)NC(=O)c1nc[nH]c1C(=O)N[C@@H](C)C(=O)CNC[C@H](C)NC(=O)c1nc[nH]c1C(=O)N[C@@H](CC(C)C)C(=O)O,-19,-17,nt,-3.2,-0.2%,-2,nt

# High-throughput results: PubChem BioAssay, National Center for Advancing Translational Sciences (NCATS)
